A1 apoptosis 2: A1 inhibition read as caspase activation; caspase activation, % (test concentration not listed); MEF A1-2A-BIM cells, caspase-Glo luminescence, 3 h; percent of clofoctol response, DMSO zero; 24,000 tested, under 10 active; in the data active means caspase activation above about 5.9%; inconclusive means no clear call, values can overlap the other calls; inactive means below about 2.2%;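 further: wells of about 30 µL received 50 nL stock; the first replicate is given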
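System: mouse embryonic fibroblasts co-expressing A1 and BIM (A1-2A-BIM), primed for A1 dependence; amount: 2500 cells/well; doses: 50 nL pinned compound; schedule: cells settled overnight, compound exposure 3 h at 37 °C, 5% CO2; detection: Caspase-Glo 3/7 luminescence, 1 h at room temperature; read-out: Caspase-3/7 activation, seen as rise in luminescence signal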
An asterisk follows results filed as active; ? = inconclusive.

SMILES	A1 apoptosis 2
COc1ccc(NC(=O)N(C)C[C@@H]2OCCCC[C@@H](C)Oc3ccc(NC(=O)Nc4ccccc4)cc3C(=O)N([C@@H](C)CO)C[C@@H]2C)cc1	0.6
C[C@H](CO)N1C[C@H](C)[C@@H](CN(C)C(=O)Nc2ccccc2)OCCCC[C@H](C)Oc2ccc(NC(=O)c3ccncc3)cc2C1=O	-0.7
CC(C)NC(=O)Nc1ccc2c(c1)C(=O)N([C@@H](C)CO)C[C@@H](C)[C@@H](CN(C)S(=O)(=O)c1ccccc1)OCCCC[C@@H](C)O2	-0.5
C[C@@H]1CN([C@@H](C)CO)C(=O)Cc2cc(NC(=O)Cc3ccccc3)ccc2O[C@H]1CN(C)S(C)(=O)=O	-0.2
C[C@H]1CN([C@@H](C)CO)C(=O)c2cccc(N(C)C)c2O[C@H]1CN(C)Cc1ccc(C(F)(F)F)cc1	-0.5
C[C@@H]1CN([C@H](C)CO)C(=O)Cc2cc(N(C)C)ccc2O[C@H]1CN(C)C(=O)Nc1ccccc1	0.2
C[C@H]1CN([C@@H](C)CO)C(=O)c2cc(NS(=O)(=O)c3ccc(Cl)cc3)ccc2O[C@H]1CN(C)S(=O)(=O)c1ccccc1	0.7
C[C@H](CO)N1C[C@H](C)[C@H](CN(C)C(=O)C2CC2)OCc2cn(nn2)CCCC1=O	0.6
O=C(CCCCC(=O)N/N=C/c1ccccc1[N+](=O)[O-])NO	-1.2
C[C@H](CO)N1C[C@H](C)[C@H](CN(C)S(=O)(=O)c2ccc(Cl)cc2)Oc2ccc(NC(=O)Cn3cnnn3)cc2C1=O	-1.6
C[C@H](CO)N1C[C@H](C)[C@H](CN(C)Cc2ccc(Oc3ccccc3)cc2)Oc2c(NC(=O)Nc3cccc4ccccc34)cccc2C1=O	-0.3
C[C@@H]1CN([C@@H](C)CO)C(=O)Cc2cc(NC(=O)NC3CCCCC3)ccc2O[C@@H]1CN(C)S(C)(=O)=O	0.4
C[C@H](CO)N1C[C@H](C)[C@@H](CN(C)Cc2ccc(-c3ccccc3)cc2)Oc2c(NC(=O)Nc3ccc(C(F)(F)F)cc3)cccc2C1=O	-1.9
CNC[C@@H]1OCCCC[C@@H](C)Oc2ccc(NS(=O)(=O)c3ccccc3)cc2C(=O)N([C@H](C)CO)C[C@H]1C	0.0
C[C@@H]1CCCCO[C@H](CN(C)C(=O)CCC(F)(F)F)[C@H](C)CN([C@@H](C)CO)C(=O)c2cc(NC(=O)CCC(F)(F)F)ccc2O1	-0.9
CC1=CC2(CO)C(=O)[C@]3(CO3)[C@H]1[C@H]1[C@]2(C)C=C(CO)C(=O)[C@]12CO2	-0.2
COc1ccc(NC(=O)N(C)C[C@H]2Oc3c(NC(=O)NC4CCCCC4)cccc3C(=O)N([C@@H](C)CO)C[C@@H]2C)cc1	-0.2
Cc1noc(C)c1NC(=O)N(C)C[C@H]1Oc2ccc(NC(=O)Nc3ccc4c(c3)OCO4)cc2CC(=O)N([C@@H](C)CO)C[C@H]1C	-0.1
C[C@@H]1CN([C@@H](C)CO)C(=O)c2cccc(NC(=O)NC3CCCCC3)c2O[C@H]1CN(C)C(=O)Nc1ccccc1	-0.9
C[C@H](CO)N1C[C@H](C)[C@H](CN(C)S(=O)(=O)c2ccc(Cl)cc2)Oc2ccc(NS(C)(=O)=O)cc2CC1=O	1.2
C[C@H]1CN([C@@H](C)CO)C(=O)Cc2cc(NS(C)(=O)=O)ccc2O[C@@H]1CN(C)C	0.4
C[C@@H]1CN([C@@H](C)CO)C(=O)c2cccc(NC(=O)c3ccc(-c4nccs4)cc3)c2O[C@H]1CN(C)C(=O)Nc1ccccc1	-0.4
C[C@@H]1CN([C@@H](C)CO)C(=O)Cc2cc(NC(=O)Nc3ccc(C(F)(F)F)cc3)ccc2O[C@@H]1CN(C)Cc1ccncc1	0.5
C[C@H]1CN([C@@H](C)CO)C(=O)c2cc(NS(=O)(=O)c3cccs3)ccc2O[C@H]1CN(C)S(=O)(=O)c1ccccc1	-2.2
C[C@@H]1CN([C@H](C)CO)C(=O)c2cc(NS(=O)(=O)c3cn(C)cn3)ccc2O[C@H]1CN(C)C(=O)Nc1ccc(C(F)(F)F)cc1	-0.4
CNC[C@H]1Oc2ccc(NC(=O)CCCN(C)C)cc2C(=O)N([C@H](C)CO)C[C@H]1C	1.6
C[C@H]1CN([C@@H](C)CO)C(=O)c2cc(NC(=O)Nc3ccc(F)cc3)ccc2O[C@H]1CN(C)S(C)(=O)=O	1.1
C[C@@H]1CCCCO[C@H](CN(C)S(=O)(=O)c2cn(C)cn2)[C@H](C)CN([C@H](C)CO)C(=O)c2cc(NS(=O)(=O)c3ccc(Cl)cc3)ccc2O1	1.3
CNC[C@H]1OCCCC[C@H](C)Oc2ccc(N(C)C)cc2C(=O)N([C@@H](C)CO)C[C@@H]1C	0.6
C[C@@H]1CN([C@H](C)CO)C(=O)Cc2cc(NC(=O)Nc3ccccc3)ccc2O[C@H]1CN(C)C(=O)Nc1ccc(C(F)(F)F)cc1	-0.9
C[C@@H]1CN([C@H](C)CO)C(=O)c2cc(NC(=O)CCCN(C)C)ccc2O[C@@H]1CN(C)CC1CCCCC1	0.1
C[C@H](CO)N1C[C@H](C)[C@H](CN(C)S(=O)(=O)c2ccc(Cl)cc2)OCc2cn(nn2)CCCC1=O	0.8
C[C@@H]1CN([C@H](C)CO)C(=O)Cc2cc(NC(=O)C3CCCCC3)ccc2O[C@H]1CN(C)S(=O)(=O)c1ccccc1	-0.5
C[C@@H]1CCCCO[C@@H](CN(C)C(=O)C2CCCCC2)[C@H](C)CN([C@@H](C)CO)C(=O)c2cc(NS(=O)(=O)c3cn(C)cn3)ccc2O1	-0.8
C[C@@H]1CN([C@H](C)CO)C(=O)c2cc(NS(=O)(=O)c3ccccc3)ccc2O[C@@H]1CN(C)S(=O)(=O)c1cn(C)cn1	1.1
C[C@@H]1CCCCO[C@@H](CN(C)C(=O)NC2CCCCC2)[C@@H](C)CN([C@@H](C)CO)C(=O)c2cc(N(C)C)ccc2O1	1.3
C[C@H]1CN([C@@H](C)CO)C(=O)c2cccc(NS(=O)(=O)c3cccs3)c2O[C@@H]1CN(C)Cc1ccc(Oc2ccccc2)cc1	-0.2
O=C1c2ccccc2C(=O)N1[C@@H]1CCCN(Cc2cccc(OCCO)c2)C1	-0.5
C[C@H]1CN([C@@H](C)CO)C(=O)CCCn2cc(nn2)CO[C@@H]1CN(C)C(=O)Nc1cccc2ccccc12	1.0
C[C@@H]1CN([C@@H](C)CO)C(=O)Cc2cc(NS(=O)(=O)c3cccs3)ccc2O[C@H]1CN(C)S(C)(=O)=O	0.4
COc1ccc(S(=O)(=O)Nc2ccc3c(c2)CC(=O)N([C@H](C)CO)C[C@H](C)[C@@H](CN(C)S(=O)(=O)c2cn(C)cn2)O3)cc1	-0.1
Cc1noc(C)c1S(=O)(=O)Nc1ccc2c(c1)C(=O)N([C@H](C)CO)C[C@@H](C)[C@@H](CN(C)C(=O)NC(C)C)OCCCC[C@@H](C)O2	-0.3
C[C@H](CO)N1C[C@H](C)[C@H](CN(C)S(C)(=O)=O)Oc2ccc(NC(=O)Nc3ccc(F)cc3)cc2CC1=O	?
O=C(NCCN1CCOCC1)[C@@]1(Cc2ccccc2)N=C(c2ccc(OCCCO)cc2)O[C@H]1c1ccccc1	0.4
C[C@H]1CCCCO[C@@H](CN(C)Cc2ccc(C(=O)O)cc2)[C@@H](C)CN([C@@H](C)CO)C(=O)c2cc(NC(=O)c3ccccc3)ccc2O1	-0.9
[N-]=[N+]=NCc1ccccc1C[C@@]1(C(=O)N2CCCCC2)N=C(c2ccc(OCCCO)cc2)O[C@@H]1c1ccccc1	-1.8
C[C@H](CO)N1C[C@H](C)[C@@H](CN(C)C(=O)NC2CCCCC2)Oc2c(cccc2N(C)C)C1=O	0.3
C#Cc1ccc([C@@H]2C=C(C(=O)Nc3ccccc3)O[C@H](OCC)[C@H]2CCCO)cc1	1.1
C[C@@H]1CN([C@H](C)CO)C(=O)c2cc(NC(=O)Cn3cnnn3)ccc2O[C@@H]1CN(C)Cc1ccncc1	0.2
Cc1noc(C)c1NC(=O)N(C)C[C@H]1OCCCC[C@H](C)Oc2ccc(NC(=O)Cc3ccccc3)cc2C(=O)N([C@@H](C)CO)C[C@@H]1C	0.8
COc1ccc(NC(=O)Nc2ccc3c(c2)C(=O)N([C@H](C)CO)C[C@@H](C)[C@H](CN(C)Cc2ccc(-c4ccccc4)cc2)O3)cc1	0.4
C[C@H](CO)N1C[C@H](C)[C@@H](CN(C)Cc2ccc(Oc3ccccc3)cc2)Oc2ccc(NS(=O)(=O)c3ccc(Cl)cc3)cc2C1=O	-0.3
C[C@H]1CN([C@@H](C)CO)C(=O)c2cccc(NC(=O)Nc3ccccc3)c2O[C@@H]1CN(C)Cc1ccncc1	1.0
C[C@H](CO)N1C[C@H](C)[C@@H](CN(C)CC2CCCCC2)Oc2ccc(NC(=O)Cn3cnnn3)cc2CC1=O	-1.1
Cc1noc(C)c1S(=O)(=O)N(C)C[C@@H]1OCCCC[C@@H](C)Oc2ccc(NC(=O)Nc3cccc4ccccc34)cc2C(=O)N([C@@H](C)CO)C[C@H]1C	1.0
O=C(CCCCCC(=O)Nc1ccccc1O)N/N=C/c1ccc(S(=O)(=O)O)o1	0.7
C=CCNC(=O)[C@@H]1[C@H]2C(=O)O[C@H](c3ccccc3)[C@H](c3ccccc3)N2[C@H](c2ccc(O)cc2)[C@@]12C(=O)Nc1ccc(C#CC3(O)CCCCCC3)cc12	-0.1
C[C@H](CO)N1C[C@H](C)[C@@H](CN(C)C(=O)Nc2ccccc2)OCCCC[C@H](C)Oc2ccc(NC(=O)c3ccccc3)cc2C1=O	1.0
Cc1noc(C)c1NC(=O)Nc1cccc2c1O[C@H](CN(C)Cc1ccc(C(F)(F)F)cc1)[C@H](C)CN([C@H](C)CO)C2=O	0.3
C[C@@H]1CN([C@H](C)CO)C(=O)Cc2cc(NC(=O)Nc3ccc(F)cc3)ccc2O[C@H]1CN(C)Cc1ccc(C(=O)O)cc1	-0.2

Some of the entries above in another layout.
smiles | A1 apoptosis 2
COc1ccc(S(=O)(=O)Nc2ccc3c(c2)CC(=O)N([C@H](C)CO)C[C@H](C)[C@@H](CN(C)S(=O)(=O)c2cn(C)cn2)O3)cc1 | -0.1
Cc1noc(C)c1S(=O)(=O)Nc1ccc2c(c1)C(=O)N([C@H](C)CO)C[C@@H](C)[C@@H](CN(C)C(=O)NC(C)C)OCCCC[C@@H](C)O2 | -0.3
C[C@H](CO)N1C[C@H](C)[C@H](CN(C)S(C)(=O)=O)Oc2ccc(NC(=O)Nc3ccc(F)cc3)cc2CC1=O | ?
O=C(NCCN1CCOCC1)[C@@]1(Cc2ccccc2)N=C(c2ccc(OCCCO)cc2)O[C@H]1c1ccccc1 | 0.4
C[C@H]1CCCCO[C@@H](CN(C)Cc2ccc(C(=O)O)cc2)[C@@H](C)CN([C@@H](C)CO)C(=O)c2cc(NC(=O)c3ccccc3)ccc2O1 | -0.9
[N-]=[N+]=NCc1ccccc1C[C@@]1(C(=O)N2CCCCC2)N=C(c2ccc(OCCCO)cc2)O[C@@H]1c1ccccc1 | -1.8
C[C@H](CO)N1C[C@H](C)[C@@H](CN(C)C(=O)NC2CCCCC2)Oc2c(cccc2N(C)C)C1=O | 0.3
C#Cc1ccc([C@@H]2C=C(C(=O)Nc3ccccc3)O[C@H](OCC)[C@H]2CCCO)cc1 | 1.1
C[C@@H]1CN([C@H](C)CO)C(=O)c2cc(NC(=O)Cn3cnnn3)ccc2O[C@@H]1CN(C)Cc1ccncc1 | 0.2

(cont.)
SMILES	A1 apoptosis 2
COc1ccc(S(=O)(=O)Nc2ccc3c(c2)C(=O)N([C@@H](C)CO)C[C@H](C)[C@@H](CN(C)S(=O)(=O)c2ccc(Cl)cc2)OCCCC[C@H](C)O3)cc1	-1.3
C=CCOC(=O)[C@H]1[C@@H]2C(=O)O[C@@H](c3ccccc3)[C@@H](c3ccccc3)N2[C@@H](c2ccc(OCCOC(=O)[C@@H]3C[C@@H]4C(=O)N[C@@H](CC(C)C)C(=O)N4[C@@H]3c3cccc(OCCO)c3)cc2)[C@]12C(=O)Nc1ccc(I)cc12	0.5
Cc1noc(C)c1NC(=O)N(C)C[C@H]1Oc2ccc(NS(=O)(=O)c3c(C)noc3C)cc2CC(=O)N([C@@H](C)CO)C[C@@H]1C	0.3
Cc1ccc(S(=O)(=O)N(C)C[C@H]2Oc3ccc(NC(=O)Nc4ccccc4)cc3CC(=O)N([C@H](C)CO)C[C@H]2C)cc1	0.1
C[C@H]1CN([C@@H](C)CO)C(=O)c2cc(NS(=O)(=O)c3ccc(F)cc3)ccc2O[C@H]1CN(C)S(=O)(=O)c1ccc(F)cc1	1.7
C[C@@H]1CN([C@@H](C)CO)C(=O)c2cc(NS(=O)(=O)c3cccs3)ccc2O[C@@H]1CN(C)Cc1ccccc1	-0.8
C[C@@H]1CCCCO[C@@H](CN(C)Cc2ccc(C(F)(F)F)cc2)[C@H](C)CN([C@H](C)CO)C(=O)c2cc(NC(=O)Nc3cccc4ccccc34)ccc2O1	0.6
C[C@H]1CN([C@@H](C)CO)C(=O)c2cccc(N(C)C)c2O[C@@H]1CN(C)C(=O)NC1CCCCC1	0.9
CC(C)NC(=O)Nc1ccc2c(c1)C(=O)N([C@@H](C)CO)C[C@@H](C)[C@H](CN(C)C)OCCCC[C@H](C)O2	2.1
C[C@@H]1CN([C@@H](C)CO)C(=O)c2cc(NC(=O)Nc3ccc4c(c3)OCO4)ccc2O[C@@H]1CN(C)C	-0.5
Cc1noc(C)c1S(=O)(=O)N(C)C[C@H]1OCCCC[C@@H](C)Oc2ccc(NC(=O)Nc3ccc(F)cc3)cc2C(=O)N([C@@H](C)CO)C[C@H]1C	-1.4

This is a subset (hit frequency here may not be typical).
